Bioassay records from PubChem BioAssay.
NOMO-1 viab: STK33 inhibitor candidate reducing NOMO-1 cell viability; NOMO-1 AML viability, CellTiter-Glo luminescence, 72 h; inhibition, % (test concentration not listed); 7.5% of 37,000 active;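 active means most replicates above 80%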;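 further: wells of about 30 µL received 25 nL stock; 0% = median of vehicle wells and 100% = reference inhibitor level; the first replicate is given; inactives centre near 10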
* = called active by the depositor. An excerpt, so the mix of outcomes need not match the whole.

SMILES	NOMO-1 viab
C[C@@H]1CN([C@@H](C)CO)C(=O)Cc2cc(NC(=O)Cc3ccccc3)ccc2O[C@@H]1CN(C)Cc1ccc(C(=O)O)cc1	-3.0
C[C@H](CO)N1C[C@H](C)[C@H](CN(C)Cc2ccc3c(c2)OCO3)Oc2ccc(NC(=O)CCCCCC(=O)Nc3ccccc3N)cc2C1=O	46.5
O=C(Nc1ccc(-c2nc3cc(NC(=O)C4CCCCC4)ccc3o2)cc1)C1CCCCC1	99.0*
C[C@@H]1CCCCO[C@H](CN(C)C(=O)CCCN(C)C)[C@@H](C)CN([C@H](C)CO)C(=O)c2cc(NC(=O)C3CCCCC3)ccc2O1	20.3
COc1ccc(NC(=O)Nc2cccc3c2O[C@H](CN(C)C(=O)Nc2ccc(C(F)(F)F)cc2)[C@@H](C)CN([C@@H](C)CO)C3=O)cc1	-0.1
CCN(CC)S(=O)(=O)c1cc(C(=O)Nc2ccccc2C)ccc1C	29.9
COc1ccc(S(=O)(=O)N(C)CC(=O)NC2CC2)cc1C	-7.6
CC1=C(C(=O)Nc2ccccc2)C(c2ccccc2OCc2ccccc2)n2nnnc2N1 (centres undefined)	3.3
C[C@H](CO)N1C[C@H](C)[C@@H](CN(C)S(=O)(=O)c2cn(C)cn2)Oc2ccc(NC(=O)CCN3CCOCC3)cc2C1=O	8.2
Cc1cc(C)nc(NS(=O)(=O)c2ccc(NC(=S)NC(=O)C3CCCC3)cc2)n1	19.8

The last 2 compounds of the section above lead into the next.
SMILES	NOMO-1 viab
C[C@H](CO)N1C[C@H](C)[C@@H](CN(C)S(=O)(=O)c2cn(C)cn2)Oc2ccc(NC(=O)CCN3CCOCC3)cc2C1=O	8.2
Cc1cc(C)nc(NS(=O)(=O)c2ccc(NC(=S)NC(=O)C3CCCC3)cc2)n1	19.8
N#Cc1c(-c2ccccc2)cc2c(c1N)c(=O)oc1ccccc12	20.0
CC(C)(C)C(=O)CSc1nnc(-c2ccncc2)n1-c1ccc(Br)cc1	32.0
Cc1ccc(Nc2nc(Oc3ccc(OCc4ccccc4)nn3)nc(N3CCOCC3)n2)cc1	29.8
Cc1cc(C(=O)Nc2cccc3c2O[C@H](CN(C)Cc2ccc(-c4ccccc4)cc2)[C@H](C)CN([C@H](C)CO)C3=O)n(C)n1	30.3
C[C@H](O)c1nc2ccccc2c(=O)[nH]1	-7.7
C[C@H](CO)N1C[C@H](C)[C@@H](CN(C)C(=O)Nc2ccc(F)cc2)Oc2c(NC(=O)C3CC3)cccc2C1=O	14.1
COc1ccc(Cl)cc1N(CC(=O)Nc1ccc(F)c(F)c1)S(C)(=O)=O	8.0
Cc1noc(C)c1NC(=O)N(C)C[C@H]1Oc2ccc(N(C)C)cc2C(=O)N([C@@H](C)CO)C[C@@H]1C	20.4
c1ccc2[nH]c(CCCc3nc4ccccc4[nH]3)nc2c1	14.3
COc1ccc(S(=O)(=O)N(C)C[C@@H]2Oc3ccc(NC(=O)CCN4CCOCC4)cc3CC(=O)N([C@H](C)CO)C[C@@H]2C)cc1	11.7
O=C(Nc1ccc2c(c1)OCO2)c1ccc(Br)o1	-8.9
Nc1nnc(SCC(=O)Nc2ccc(Oc3ccccc3)cc2)s1	20.5
COc1ccc(S(=O)(=O)N(C)C[C@H]2Oc3ccc(N(C)C)cc3CC(=O)N([C@H](C)CO)C[C@H]2C)cc1	7.9
COc1ccc(NC(=O)N(C)C[C@@H]2Oc3ccc(NC(=O)Nc4c(C)noc4C)cc3C(=O)N([C@H](C)CO)C[C@@H]2C)cc1	-8.3
CCCn1c2ccccc2c2nnc(SCCC(=O)O)nc21	3.9
O=C(Nc1ccc(Cl)c(C(F)(F)F)c1)C(=S)NCc1ccco1	66.9
O=C(CCCN1C(=O)c2ccccc2C1=O)Nc1ccc(Cl)cc1C(F)(F)F	20.8
C=C(C(=O)O)[C@@H]1CC[C@@]2(C)C=CC(=O)[C@@H](CCC3(O)C(=O)C=C[C@]4(C)CC[C@@H](C(=C)C(=O)O)C[C@@H]34)[C@@H]2C1 (some centres undefined)	25.9
CCOc1ccc2nc(SCC(=O)Nc3ccc(Br)cc3F)sc2c1	32.8
Cc1ccc(S(=O)(=O)Nc2ccc3c(c2)C(=O)N([C@H](C)CO)C[C@@H](C)[C@H](CN(C)S(=O)(=O)c2ccc(C)cc2)O3)cc1	-10.1

Overlap with the part before: 5 entries, followed by the next part.
SMILES	NOMO-1 viab
O=C(Nc1ccc(Cl)c(C(F)(F)F)c1)C(=S)NCc1ccco1	66.9
O=C(CCCN1C(=O)c2ccccc2C1=O)Nc1ccc(Cl)cc1C(F)(F)F	20.8
C=C(C(=O)O)[C@@H]1CC[C@@]2(C)C=CC(=O)[C@@H](CCC3(O)C(=O)C=C[C@]4(C)CC[C@@H](C(=C)C(=O)O)C[C@@H]34)[C@@H]2C1 (some centres undefined)	25.9
CCOc1ccc2nc(SCC(=O)Nc3ccc(Br)cc3F)sc2c1	32.8
Cc1ccc(S(=O)(=O)Nc2ccc3c(c2)C(=O)N([C@H](C)CO)C[C@@H](C)[C@H](CN(C)S(=O)(=O)c2ccc(C)cc2)O3)cc1	-10.1
C[C@H]1CN([C@@H](C)CO)C(=O)c2cccc(NC(=O)c3cnccn3)c2O[C@@H]1CN(C)CC1CCCCC1	2.2
N#Cc1cnc2c(C(N)=O)cnn2c1N	5.9
CNC[C@H]1Oc2c(NS(=O)(=O)c3ccc(Cl)cc3)cccc2C(=O)N([C@H](C)CO)C[C@H]1C	21.2
COc1ccc(CN(C)C[C@H]2OCCCC[C@@H](C)Oc3ccc(NC(=O)Nc4ccc(C(F)(F)F)cc4)cc3C(=O)N([C@H](C)CO)C[C@@H]2C)cc1	85.1*
CC(C)NC(=O)Nc1ccc2c(c1)CC(=O)N([C@H](C)CO)C[C@@H](C)[C@H](CN(C)S(=O)(=O)c1ccccc1)O2	0.5
C[C@H](CO)N1C[C@H](C)[C@@H](CN(C)S(=O)(=O)c2cn(C)cn2)Oc2c(NC(=O)C3CCCCC3)cccc2C1=O	-1.9
C[C@@H]1CN([C@@H](C)CO)C(=O)c2cccc(NC(=O)c3cnccn3)c2O[C@@H]1CN(C)S(C)(=O)=O	26.5
C[C@H](CO)N1C[C@H](C)[C@H](CN(C)S(C)(=O)=O)Oc2ccc(NC(=O)CCCN(C)C)cc2C1=O	16.4
C[C@H]1CN([C@@H](C)CO)C(=O)c2cccc(NS(=O)(=O)c3ccccc3)c2O[C@H]1CN(C)S(=O)(=O)c1cccs1	35.0
CC1(C)[C@H](O)CC[C@@]2(C)[C@@H]3CC[C@](C)(C(O)CO)CC3=CC[C@H]12 (some centres undefined)	-0.7
CC12CCC(c3c1nn(-c1ccccc1)c3C(F)(F)F)C2(C)C (centres undefined)	122.6*
C[C@@H]1CN([C@H](C)CO)C(=O)c2cccc(NC(=O)c3ccc(-c4nccs4)cc3)c2O[C@H]1CN(C)C	24.1
Cn1c(SCC(=O)Nc2ccc3ccccc3c2)nnc1-c1cc2ccccc2o1	-5.0
COc1ccc(CC(=O)NCC(C)C)cc1	-2.7
COC(=O)c1cc(-c2ccccc2)sc1NC(=S)NCc1ccccn1	16.5
C[C@H](CO)N1C[C@H](C)[C@@H](CN(C)Cc2ccc(Cl)c(Cl)c2)Oc2ccc(NS(=O)(=O)c3ccccc3)cc2C1=O	20.4
CC(C)NC(=O)N(C)C[C@H]1Oc2ccc(NC(=O)Nc3ccc(C(F)(F)F)cc3)cc2C(=O)N([C@H](C)CO)C[C@@H]1C	10.7
COC(=O)c1cc(NC(=O)CC2Sc3ccccc3NC2=O)cc(C(=O)OC)c1 (centres undefined)	113.4*
COc1cccc(C(=O)COc2ccc(NC(=O)c3ccc(Cl)c(Cl)c3)cc2)c1	15.6
C[C@@H]1CCCCO[C@H](CN(C)Cc2ccc3c(c2)OCO3)[C@@H](C)CN([C@H](C)CO)C(=O)c2cc(NC(=O)Nc3ccc(F)cc3)ccc2O1	70.1

Part of the list above in a different format.
| smiles | NOMO-1 viab |
| --- | --- |
| COc1ccc(CC(=O)NCC(C)C)cc1 | -2.7 |
| COC(=O)c1cc(NC(=O)CC2Sc3ccccc3NC2=O)cc(C(=O)OC)c1 (centres undefined) | 113.4* |

The results go on.
SMILES	NOMO-1 viab
Cc1coc(C)c1C(=O)CC1(O)C(=O)N(CCCC#N)c2ccccc21 (centres undefined)	32.1
COc1ccc(CN(C)C[C@@H]2Oc3ccc(NS(=O)(=O)c4cn(C)cn4)cc3C(=O)N([C@@H](C)CO)C[C@H]2C)cc1	-10.1
COc1cccc(N(CC(=O)Nc2ccc(Br)cc2F)S(C)(=O)=O)c1	-9.3
Cc1noc(C)c1NC(=O)Nc1ccc2c(c1)C(=O)N([C@H](C)CO)C[C@H](C)[C@H](CN(C)Cc1ccc(C(F)(F)F)cc1)O2	14.9
Cc1ccc(S(=O)(=O)N(C)C[C@H]2Oc3c(NS(=O)(=O)c4cn(C)cn4)cccc3C(=O)N([C@H](C)CO)C[C@H]2C)cc1	11.2
C[C@H]1CN([C@@H](C)CO)C(=O)c2cccc(NC(=O)Nc3ccc4c(c3)OCO4)c2O[C@@H]1CN(C)Cc1ccc(C(F)(F)F)cc1	109.9*
Cn1c(=O)c2c(nc(NCCCO)n2C/C=C/c2ccccc2)n(C)c1=O	10.7
CCn1c(SCC(=O)N2CCc3ccccc32)nnc1-c1ccc([N+](=O)[O-])cc1	24.1
C[C@@H]1CN([C@H](C)CO)C(=O)Cc2cc(NS(=O)(=O)c3cn(C)cn3)ccc2O[C@H]1CN(C)Cc1ccc(C(F)(F)F)cc1	23.1
C[C@H]1CN([C@@H](C)CO)C(=O)c2cccc(NC(=O)C3CC3)c2O[C@H]1CN(C)S(=O)(=O)c1cccs1	6.4

In another format: 3 of the compounds above
molecule,NOMO-1 viab
C[C@@H]1CCCCO[C@H](CN(C)C(=O)CCCN(C)C)[C@@H](C)CN([C@H](C)CO)C(=O)c2cc(NC(=O)C3CCCCC3)ccc2O1,20.3
C[C@H](CO)N1C[C@H](C)[C@@H](CN(C)S(=O)(=O)c2cn(C)cn2)Oc2ccc(NC(=O)CCN3CCOCC3)cc2C1=O,8.2
CCCn1c2ccccc2c2nnc(SCCC(=O)O)nc21,3.9

Following part.
SMILES	NOMO-1 viab
CCOC(=O)C1=C(Nc2ccc(OC(C)=O)cc2)C(=O)N(C(C)(C)C)C1	28.6
COc1ccc2sc(SCc3nc(N)nc(Nc4cccc(C)c4C)n3)nc2c1	10.0
Cc1ccc(OCC(=O)NCCN2CCOCC2)c(Br)c1	-24.2
NC(=NC(=O)c1cccc(Cn2cc(C(F)(F)F)ccc2=O)c1)c1ccc(Cl)cc1	34.1
C[C@H]1CN([C@@H](C)CO)C(=O)c2cc(NS(=O)(=O)c3ccccc3)ccc2O[C@@H]1CN(C)CC1CC1	5.3
COc1ccc(NC(=O)Nc2ccc3c(c2)C(=O)N([C@H](C)CO)C[C@H](C)[C@@H](CN(C)C(=O)Nc2ccc(OC)cc2)OCCCC[C@@H](C)O3)cc1	10.8
Cc1noc(C)c1S(=O)(=O)N(C)C[C@@H]1Oc2ccc(NC(=O)CCCCCC(=O)Nc3ccccc3N)cc2CC(=O)N([C@@H](C)CO)C[C@@H]1C	10.6
CCc1ccccc1NC(=O)c1ccccc1S(=O)(=O)c1ccccc1[N+](=O)[O-]	-5.9
CSc1ncc(Cl)c(C(=O)Nc2nnc(SC)s2)n1	3.9
Cc1noc(C)c1S(=O)(=O)Nc1ccc2c(c1)CC(=O)N([C@H](C)CO)C[C@@H](C)[C@@H](CN(C)C(=O)NC(C)C)O2	7.7
Cc1cc(C)c(NC(=O)CSc2nnc(-c3ccccc3Cl)n2C)c(C)c1	7.8
C[C@H](CO)N1C[C@H](C)[C@H](CN(C)C(=O)Nc2ccccc2)Oc2ccc(NS(=O)(=O)c3ccc(F)cc3)cc2C1=O	-5.9
C[C@@H]1CN([C@H](C)CO)C(=O)c2cc(NS(=O)(=O)c3ccccc3)ccc2O[C@H]1CN(C)C(=O)NC1CCCCC1	-0.4
C[C@@H]1CN([C@H](C)CO)C(=O)Cc2cc(N(C)C)ccc2O[C@H]1CN(C)S(=O)(=O)c1cccs1	-1.2
COc1cc(C2SC(C)C(=O)N2CCc2ccccc2)cc(OC)c1OC (centres undefined)	30.2
C[C@H](CO)N1C[C@H](C)[C@H](CN(C)C(=O)Nc2ccc(C(F)(F)F)cc2)Oc2ccc(NS(=O)(=O)c3ccc(Cl)cc3)cc2CC1=O	37.9
O=C(NCc1ccccn1)c1cc2cc(Br)ccc2oc1=O	13.1
CCCc1cc(=O)[nH]c(SCC(=O)Nc2ccc(Cl)c(Cl)c2)n1	37.9
CCN(CC)c1nc(Oc2ccc(=O)[nH]n2)nc(N2CCOCC2)n1	-18.9
CCC(Sc1nc2ccccc2s1)C(=O)Nc1ccc(Br)cc1 (centres undefined)	18.7
Cc1noc(C)c1NC(=O)N(C)C[C@@H]1Oc2c(NS(=O)(=O)c3cccs3)cccc2C(=O)N([C@@H](C)CO)C[C@@H]1C	-1.7
CCn1c(SCC(=O)Nc2ccc3c(c2)OCCO3)nnc1-c1cccs1	-12.6
Cc1nnc(SCC(=O)Nc2ccc(Cl)c(C)c2)s1	0.7
Cc1noc(C)c1NC(=O)Nc1ccc2c(c1)CC(=O)N([C@H](C)CO)C[C@H](C)[C@H](CN(C)C)O2	-2.1
C[C@@H]1CN([C@H](C)CO)C(=O)c2cccc(NC(=O)Nc3ccc(F)cc3)c2O[C@@H]1CN(C)C(=O)Nc1ccc(F)cc1	9.6
O=c1cc(CSc2ccccn2)c2ccc(O)cc2o1	19.8
C[C@H]1CN([C@@H](C)CO)C(=O)c2cccc(NC(=O)c3ccc(-c4nccs4)cc3)c2O[C@H]1CN(C)CC1CCCCC1	4.1
Cc1cc(Br)ccc1NC(=O)Cn1cnc2ccccc2c1=O	0.0
CCOC(=O)c1c(NC(=O)Cn2nc(C)c([N+](=O)[O-])c2C)sc2c1CCCC2	21.9
CCNc1nc(SCC(=O)Nc2ccc(Cl)c(Cl)c2)nc(N(C)C)n1	28.8
COc1ccccc1N(CC(=O)N1CCCCC1)S(C)(=O)=O	-13.5
COC(=O)C1=C2C(=O)c3c(O)cc(CO)cc3OC2C(O)C=C1 (centres undefined)	107.8*
C[C@@H]1CN([C@H](C)CO)C(=O)Cc2cc(NC(=O)CCCCCC(=O)Nc3ccccc3N)ccc2O[C@H]1CN(C)S(=O)(=O)c1ccc(Cl)cc1	8.6
C[C@H]1CN([C@@H](C)CO)C(=O)Cc2cc(NC(=O)Nc3ccccc3)ccc2O[C@H]1CN(C)Cc1ccc(Cl)c(Cl)c1	104.1*
O=[N+]([O-])c1ccc(N2CCNCC2)cc1NCc1ccccn1	2.6
